NPYLR7 agonist: activates Aedes aegypti NPYLR7 receptor. 270,000 compounds, 0.15% hits. HEK293T NPYLR7/Galpha15, GCaMP6s calcium fluorescence. activation, % at 10 µM; in the data active means activation above about 40%;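 further: 0% = vehicle and 100% = reference agonist at the receptor; some compounds past the cut are filed as inactive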
NPYLR7 agonist max-min: also measured in NPYLR7 agonist; calls as there; activation, %; measured here: Max-Min RFU normalised activation; some inactives read as strong as hits;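 span of the calcium signal over five minutes; 0% = vehicle and 100% = native peptide agonist; compound fluorescence can raise it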
Numbers without * were called inactive; & = joins results of further samples.

Second line of a record – NPYLR7 agonist	NPYLR7 agonist max-min
- CC(C)Cc1ncc2c(n1)CN(C(=O)C(C)Cn1cccn1)C2 (stereo not given)
 : 0	10
- COCCCNC(=O)C(NC(=O)c1ccccc1F)C1CCN(C(=O)c2ccc3c(c2)OCO3)CC1 (stereo not given)
 : -2	0
- FC(F)(F)c1ccc(C2CC(c3ccc(Cl)cc3)=Nc3ncnn32)cc1 (stereo not given)
 : 10	7
- COc1cccc(NC2CCN(CCC#N)CC2)c1
 : 0	-6
- COCCCN(C(=O)c1ccc(Cl)c(Cl)c1)C(C)c1nc2ccccc2c(=O)n1-c1ccc(Cl)cc1 (stereo not given)
 : -1	5
- CCOC(=O)N1CCN(C(=O)c2cn(C(c3ccccc3)c3ccccc3)nn2)CC1
 : 7	4
- CCCOC(=O)C1=C(C)NC2=C(C(=O)CC(c3ccccc3)C2)C1c1cccc(OC)c1 (stereo not given)
 : 3	2
- O=C(NCc1cccc(C(F)(F)F)c1)c1ccc(CSc2nnc(-c3ccncc3)n2Cc2ccccc2)cc1
 : 16	21
- CC(=O)NCCn1ccnc1-c1cccc(-c2ccccc2C)c1
 : 10	10
- O=C1OC(c2ccccc2F)=N/C1=C\C=C\c1ccccc1
 : -2	-10
- Brc1c(OCCNCCN2CCOCC2)ccc2ccccc12
 : -3	-3
- O=C(COC(=O)c1ccc2ccccc2n1)Nc1cccc(I)c1
 : 4	0
- CC(=O)N1CCC(Oc2ccc(Cl)cc2C(=O)NCCc2nc(C)cc(C)n2)CC1
 : 21	10
- CCN(C/C(C)=C/c1ccco1)Cc1c(C)nn(CC)c1C
 : 20&3	17&9
- O=S=C1c2ccccc2S(=O)(=O)c2ccccc21
 : -2	0
- Nc1nc(CCC(=O)N2CCCC3(CNC(=O)O3)C2)cs1 (stereo not given)
 : 8	7
- COc1ccc(S(=O)(=O)N2CCC(CO)(Cc3ccccc3Cl)CC2)cc1
 : 0&8	-1&10
- CC(=O)c1cc(C(=O)OCC(=O)Nc2cccc(Cl)c2C)c2ccccn12
 : -1	-10
- N#CCCNC(=O)c1ccc(-c2cccc(Cl)c2)s1
 : 13	26
- CCCC(=O)C1=C(c2ccc(F)cc2)N(C(=O)CCC)n2cnnc2S1
 : 5	4

(continued)
Second line of a record – NPYLR7 agonist	NPYLR7 agonist max-min
- CCOc1ccc(-c2cc(-c3nc(-c4ccccn4)no3)[nH]n2)cc1
 : 7	-1
- O=C(NCC1CCCCO1)c1coc(COc2cccc(C(F)(F)F)c2)n1 (stereo not given)
 : 5	1
- COCc1cc(C)nc(OCC(=O)N/N=C\c2cc(I)cc(I)c2O)c1C#N
 : -8	2
- Cc1cc(C)c(S(=O)(=O)N2CCNCC2)c(C)c1
 : -6	-5
- CCCc1nc(C(=O)N2Cc3cnc(-c4ccccc4)nc3C2)cs1
 : -5	-11
- CCCCC(CC)C(=O)Nc1c(-c2ccc(C)cc2)nc2cc(C)ccn12 (stereo not given)
 : -6	-4
- CSc1nc2ncc3c(=O)n(-c4cccc(F)c4)ccc3n2n1
 : 0	6
- COc1ccc(C2N=C(c3ccccc3C)NO2)cc1O (stereo not given)
 : 4&-5&-6	6&-7&-6
- O=C(Cn1cc(C(F)(F)F)cc(Cl)c1=O)c1ccc(Br)s1
 : 7	15
- CN(Cc1cnccn1)C(=O)Nc1ccc(Br)c(F)c1
 : 6	5
- CCOC(=O)c1c(NC(=O)c2ccccc2C(F)(F)F)sc2c1Cc1ccccc1-2
 : 3	-1
- Cc1cccc(OC(F)F)c1NC(=O)C1(C)CCN1C(=O)Cc1ccc(C(C)C)cc1 (stereo not given)
 : 0	-2
- CC(C)C(=O)N=c1sc2cc(F)cc(F)c2n1C
 : 2	0
- C=c1ccccc1=C1C=NNC(N2CCN(CCOC)CC2)=N1
 : -1	-6
- CCc1cccc(C)c1NC(=O)/C=C/c1ccc(N2CCCS2(=O)=O)cc1
 : 2	1
- COc1ccccc1OCCCCOc1ccc(I)cc1
 : 26	11
- COc1ccc(N(C)S(=O)(=O)c2ccc(OC)c(N3CCN(C(=O)Cc4ccccc4)CC3)c2)cc1
 : -13	-2
- CCOC(=O)c1ccc(N2C(=O)CC(N3CCN(c4ncccn4)CC3)C2=O)cc1 (stereo not given)
 : 0	0
- CCCn1nc(C(=O)N(CC)CC(=O)Nc2ccc3c(c2)OCCO3)ccc1=O
 : -1	-3
- COc1cc(C)ccc1S(=O)(=O)NC(=O)C1(C)CCN1C(=O)Cc1ccc(-c2ccccc2)cc1 (stereo not given)
 : -2	-2

(more compounds)
Second line of a record – NPYLR7 agonist	NPYLR7 agonist max-min
- O=C(c1ccccc1F)N1CCc2c([nH]c3ccccc23)C1c1ccccc1F (stereo not given)
 : -2	-6
- CCOC(=O)C1(CCCc2ccccc2)CCCN(C(=O)CN2CCOC2=O)C1 (stereo not given)
 : 1	-3
- COc1cc(C2C3CCCCC3(O)CCN2CC(=O)N2CCCCC2)ccc1O (stereo not given)
 : 2	59
- CCCSc1ncccc1C(=O)NCCc1ccccc1
 : -4	-11
- CCC(C)CN(C)C(=O)Cc1ccc(S(=O)(=O)C(F)F)cc1 (stereo not given)
 : 1	2
- Cc1cc(CC(C)NC(=O)c2ccnc(C(C)C)n2)n[nH]1 (stereo not given)
 : -3	-6
- CC(C)Cc1ncc2c(n1)CN(c1nccc(N3CCC(O)CC3)n1)C2
 : -8	-9
- N#Cc1ccc(/C=C/C(=O)N2CCN(Cc3ccc(Br)s3)CC2)cc1
 : 7	7
- O=C1CC(c2ccccc2)CC2=Nc3ccccc3NC(c3ccncc3)C12 (stereo not given)
 : 3	3
- CC1CCN(CCSc2nnc(CC(C)c3ccccc3)o2)C1 (stereo not given)
 : 0	0
- COc1cccc(-c2cc(-c3ccc(C(=O)N4CCc5cc(OC)c(OC)cc5C4)cc3)[nH]n2)c1
 : 8	9
- CC(C)c1nccn1Cc1cc(C(=O)N2CCC(=O)NCC2C)n[nH]1 (stereo not given)
 : -1	2
- CCn1cc(C(=O)N2CCN(C(=O)c3cccs3)CC2)c2nn(-c3ccccc3)c(=O)c-2c1
 : 0	-1
- CC(C)CC(=O)Nc1ccnn1C1CCN(C(=O)CSc2ccccc2)CC1
 : 6&-3	0&-4
- COc1ccc(Nc2nc(NCC(C)O)nc3c2cnn3-c2ccccc2)cc1 (stereo not given)
 : 1	-2
- Cc1cn2c3c(=O)n(Cc4ccc(Cl)cc4)c(=O)n(C)c3nc2n1CCCO
 : 4	5
- N=c1sccn1CC(=O)Nc1ccccc1
 : 8	5
- Cc1ccc(C(CC(=O)NCc2ccc3c(c2)OCO3)c2cn(C)c3ccccc23)cc1 (stereo not given)
 : 5	14
- COc1cccc(NC(=O)Cn2nc(Nc3ccc(C)cc3)c(S(=O)(=O)c3ccccc3)c2N)c1
 : 6	-4
- CCOC(=O)C1=C(C)NC(=O)CC1c1cccc([N+](=O)[O-])c1 (stereo not given)
 : 10	12

(listing goes on)
Second line of a record – NPYLR7 agonist	NPYLR7 agonist max-min
- CC(C)=NNC(=O)CN(C1=NS(=O)(=O)c2ccccc21)c1ccccc1
 : -15	-25
- CC(=O)Cn1c(=O)c2c(nc3n(-c4cccc(Cl)c4)c(C)cn23)n(C)c1=O
 : 0	-1
- Cc1c(C(C)NC(=O)Cc2ccn(C)c2)cnn1-c1ccccn1 (stereo not given)
 : 5	0
- COc1cccc(C(=O)N(C)C2CCC(C)CC2)c1O (stereo not given)
 : 11	12
- CCCN(CC(=O)N(Cc1ccc(F)cc1)Cc1ccc(C)s1)C(=O)Nc1cccc(F)c1
 : -2	-12
- CC(NC(=O)CCN(Cc1ccccc1)c1nc(Cc2ccccc2)ns1)c1ccccc1 (stereo not given)
 : -7	0
- COCCCN(Cc1c(-c2ccccc2)noc1N1CCCC1)C(=O)c1ccc(F)cc1
 : 4	6
- CC(=O)N1CCC2(CCC(N3CCC(Cn4cccn4)CC3)CC2)CC1
 : 5	2
- CCN(Cc1nnnn1C1CC1)c1cc(C)ccc1C
 : -2	-5
- CC(Sc1ncn[nH]1)C(=O)NCc1ccc(Cl)cc1 (stereo not given)
 : 6	2
- CCCN(CC(=O)NC(=O)NC1CCCCC1)Cc1ccccc1O
 : 7	1
- COc1cc(OC)cc(C2c3cccn3CCCN2Cc2ccc(Cl)cc2)c1 (stereo not given)
 : 15	10
- Cc1ccccc1-c1ncc(CNCc2csc(-c3cnccn3)n2)s1
 : -6	-7
- O=C(Cc1c[nH]c2ccccc12)N1CCCC(CO)(Cc2ccccc2)C1 (stereo not given)
 : 10	2
- CCS(=O)(=O)N1Cc2ccccc2CC1C(=O)Nc1cc(C)nc2ccccc12 (stereo not given)
 : 1	1
- Cc1nc(N2CCCC2CO)nc(C)c1CC(C)C (stereo not given)
 : 13	7
- Cc1ccc(C)c(S(=O)(=O)Nc2ccccc2C(=O)NCc2ccc3c(c2)OCO3)c1
 : 23	14
- CC(C)N(C(=O)COc1cccc2c1CCNC2=O)C(C)C
 : 9	4
- Cc1ccc(-n2cc(CN(C)Cc3cnccn3)c(-c3cccc(C)c3)n2)cc1
 : 15	12
- CCOC(=O)C1CCN(C(=O)CC2CSc3nc(C(C)C)cc(=O)n32)CC1 (stereo not given)
 : -3	-5

Additional entries follow.
Second line of a record – NPYLR7 agonist	NPYLR7 agonist max-min
- CCOc1ccc(-c2cc(C(=O)NCCC#N)c3ccccc3n2)cc1
 : 15	28
- CCOC(=O)C1=C(c2ccc(OC)cc2)NC(=O)NC1c1ccc(Cl)cc1 (stereo not given)
 : -2	-8
- Cc1noc(C)c1C(c1ccccc1)S(=O)(=O)c1ccccc1 (stereo not given)
 : 2	5
- O=c1[nH]cnc2c1oc1ccccc12
 : 0	-2
- O=C1C[C@H]2CC[C@@H](CN1)N2C(=O)CCc1cccnc1
 : 8	4
- Cc1sc2ncnc(NCCOCCO)c2c1C
 : 1	1
- COc1cc(C(=O)Nc2ccccc2N2CCC(C)CC2)cc(OC)c1OC
 : 0	-2
- CC(C)(C)Oc1ccc(NC(=O)NCCc2ccc(O)cc2)cc1
 : -1	1
- CC(C)c1nnc(CCC(=O)N(c2ccc(Cl)cc2)C(C)C)o1
 : 0	-1
- CCC(C)N(Cc1ccc(OS(=O)(=O)C(C)C)cc1)C(=O)c1ccccc1Cl (stereo not given)
 : 21	14
- c1ccc(-n2cnnc2)c(N2CCCC2)c1
 : -2	-5
- Cc1oc(-c2cc(F)ccc2F)nc1CN1CCCC1c1ccc(F)cc1 (stereo not given)
 : 15	5
- CCCCN(CC(=O)N(CCc1c[nH]c2ccccc12)Cc1ccc(OC)cc1)C(=O)C(Cl)Cl
 : 11	10
- Cc1ccc(Cl)cc1NC1=NC2CS(=O)(=O)CC2S1 (stereo not given)
 : 2	2
- O=C(NC1CC1)C(C1CCCC1)N1CCN(C(=O)c2ccc(C(F)(F)F)cc2)CC1 (stereo not given)
 : -11	-9
- COCCCN(Cc1csc(COc2ccccc2C)n1)C(=O)Cc1ccccc1
 : -1	6
- O=C(NC1CCN(c2ccccc2C(=O)NCCN2CCCC2)CC1)c1ccccc1Cl
 : 1	4
- Cc1ccccc1OCC(O)CN(Cc1c(-c2ccc(F)cc2)noc1N1CCOCC1)CC1CCCO1 (stereo not given)
 : 8	10
- Cn1cc(NC(=O)CN2CCC(O)(CO)CC2)cn1
 : -3	-9
- COc1cc(NS(=O)(=O)c2c(C)c(C)c(C)c(C)c2C)cc(OC)c1OC
 : 6	3

Structures shown so far that contain an aryl thioether with sulfur outside any ring:
Second line of a record – NPYLR7 agonist	NPYLR7 agonist max-min
- O=C(NCc1cccc(C(F)(F)F)c1)c1ccc(CSc2nnc(-c3ccncc3)n2Cc2ccccc2)cc1
 : 16	21
- CSc1nc2ncc3c(=O)n(-c4cccc(F)c4)ccc3n2n1
 : 0	6
- CCCSc1ncccc1C(=O)NCCc1ccccc1
 : -4	-11
- CC1CCN(CCSc2nnc(CC(C)c3ccccc3)o2)C1 (stereo not given)
 : 0	0
- CC(C)CC(=O)Nc1ccnn1C1CCN(C(=O)CSc2ccccc2)CC1
 : 6&-3	0&-4
- CC(Sc1ncn[nH]1)C(=O)NCc1ccc(Cl)cc1 (stereo not given)
 : 6	2

Compound profiles, from the list above:
O=c1[nH]cnc2c1oc1ccccc12 in the list: NPYLR7 agonist: 0; NPYLR7 agonist max-min: -2
Cc1oc(-c2cc(F)ccc2F)nc1CN1CCCC1c1ccc(F)cc1 (stereo not given) in the list: NPYLR7 agonist: 15; NPYLR7 agonist max-min: 5

Carrying on.
Second line of a record – NPYLR7 agonist	NPYLR7 agonist max-min
- Cc1ccc(-n2nnnc2CNC(=O)Nc2ccc(C(C)(C)C)cc2)cc1
 : 2	1
- COc1cccc2c1OCC(C(=O)N(C)CC1(CO)CCOCC1)C2 (stereo not given)
 : 0	0
- C=CCNC(=O)N1[C@@H](c2ccco2)[C@@H](C(=O)OCC)C[C@]12CCCCN(CCOC(C)=O)C2=O
 : 0	9
- O=[N+]([O-])c1cc(O)c(N=Cc2ccc[nH]2)cc1Cl
 : 2	-4
- C=CCNC(=O)C(NC(=O)c1ccc(OC)cc1)C1CCN(C(=O)c2ccc(F)cc2)CC1 (stereo not given)
 : -21	-15
- Cc1ccc(-n2nnnc2CNS(=O)(=O)c2ccc3ccccc3c2)cc1
 : -2	-3
- CC1=C(C(N)=O)C(c2ccc(OC(F)F)cc2)n2ncnc2N1 (stereo not given)
 : 12	17
- COCCCN(CC(=O)N1CCc2sccc2C1c1ccc(Cl)cc1)C(=O)c1cccc(C(F)(F)F)c1 (stereo not given)
 : -1	10

6 neighbouring entries out of the list so far:
Second line of a record – NPYLR7 agonist	NPYLR7 agonist max-min
- COc1cc(NS(=O)(=O)c2c(C)c(C)c(C)c(C)c2C)cc(OC)c1OC
 : 6	3
- Cc1ccc(-n2nnnc2CNC(=O)Nc2ccc(C(C)(C)C)cc2)cc1
 : 2	1
- COc1cccc2c1OCC(C(=O)N(C)CC1(CO)CCOCC1)C2 (stereo not given)
 : 0	0
- C=CCNC(=O)N1[C@@H](c2ccco2)[C@@H](C(=O)OCC)C[C@]12CCCCN(CCOC(C)=O)C2=O
 : 0	9
- O=[N+]([O-])c1cc(O)c(N=Cc2ccc[nH]2)cc1Cl
 : 2	-4
- C=CCNC(=O)C(NC(=O)c1ccc(OC)cc1)C1CCN(C(=O)c2ccc(F)cc2)CC1 (stereo not given)
 : -21	-15

From PubChem

This is a subset; the hit share may differ from the screen's.
